# Assay outcomes as filed in PubChem.
# A1 apoptosis 2 – compounds inhibiting A1, read as caspase activation | 24,000 tested, under 10 active | AID 2465 | MEF A1-2A-BIM cells, caspase-Glo luminescence, 3 h; percent of clofoctol response, DMSO zero | caspase activation, % (concentration not given with the values); in the data active = caspase activation above about 5.9%;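 also: wells of about 30 µL received 50 nL stock; the first replicate is given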
#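 Material: mouse embryonic fibroblasts co-expressing A1 and BIM (A1-2A-BIM), primed for A1 dependence / Quantity: 2500 cells/well / Buffer or medium: RPMI-1640 growth medium with 10% FBS / Doses: 50 nL compound per well, pinned / Schedule: 3 h compound exposure at 37 °C / Signal: Caspase-Glo luminescence (DEVD substrate) / Measure: Caspase-3/7 activation, seen as rise in luminescence signal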
# The depositor's hits bear a star.
SMILES,A1 apoptosis 2
CCOc1cc(/C=N/NC(=O)c2ccccn2)ccc1O,-1.3
COc1ccc(S(=O)(=O)N(C)C[C@@H]2Oc3ccc(NC(=O)Nc4ccc5c(c4)OCO5)cc3C(=O)N([C@H](C)CO)C[C@H]2C)cc1,0.5
Cc1noc(C)c1S(=O)(=O)N(C)C[C@@H]1OCCCC[C@H](C)Oc2ccc(NC(=O)CCC(F)(F)F)cc2C(=O)N([C@H](C)CO)C[C@@H]1C,0.5
C[C@H]1CCCCO[C@@H](CN(C)Cc2ccccc2)[C@@H](C)CN([C@@H](C)CO)C(=O)c2cc(NC(=O)CCCN(C)C)ccc2O1,0.0
CC(C)NC(=O)N(C)C[C@@H]1Oc2ccc(NC(=O)CCC(F)(F)F)cc2CC(=O)N([C@@H](C)CO)C[C@@H]1C,-0.5
COc1ccc(S(=O)(=O)N(C)C[C@H]2OCCCC[C@@H](C)Oc3ccc(NS(=O)(=O)c4c(C)noc4C)cc3C(=O)N([C@@H](C)CO)C[C@H]2C)cc1,0.4
C[C@H]1CN([C@@H](C)CO)C(=O)c2cccc(NC(=O)Nc3ccc(C(F)(F)F)cc3)c2O[C@H]1CN(C)C,1.2
C[C@H](CO)N1C[C@H](C)[C@H](CN(C)Cc2ccc(C(F)(F)F)cc2)OCCCC[C@H](C)Oc2ccc(NC(=O)CCC(F)(F)F)cc2C1=O,0.8
CC(C)NC(=O)N(C)C[C@@H]1Oc2ccc(NS(=O)(=O)c3cn(C)cn3)cc2CC(=O)N([C@@H](C)CO)C[C@@H]1C,-0.4
COc1ccc(CN(C)C[C@H]2Oc3ccc(NC(=O)c4ccncc4)cc3CC(=O)N([C@H](C)CO)C[C@H]2C)cc1,-0.9
C[C@@H]1CN([C@H](C)CO)C(=O)c2cc(NS(C)(=O)=O)ccc2O[C@@H]1CN(C)S(=O)(=O)c1ccc(Cl)cc1,0.0
C=CC[C@]1(C(=O)NCC(O)CO)N=C(c2ccc(OCCCO)cc2)O[C@H]1c1ccccc1 (stereo partly specified),0.5
CC(C)NC(=O)Nc1ccc2c(c1)CC(=O)N([C@H](C)CO)C[C@@H](C)[C@@H](CN(C)Cc1ccc(C(F)(F)F)cc1)O2,-1.8
C[C@H](CO)N1C[C@H](C)[C@@H](CN(C)Cc2ccc(C(=O)O)cc2)OCCCC[C@H](C)Oc2ccc(NC(=O)C3CCCCC3)cc2C1=O,-1.2
CNC[C@@H]1Oc2ccc(NS(=O)(=O)c3ccccc3)cc2CC(=O)N([C@@H](C)CO)C[C@H]1C,-0.1
C[C@@H]1CN([C@@H](C)CO)C(=O)c2cccc(NC(=O)c3nc4ccccc4s3)c2O[C@H]1CN(C)Cc1ccc(Cl)c(Cl)c1,-0.3
C[C@@H]1CN([C@@H](C)CO)C(=O)Cc2cc(NC(=O)Nc3ccc(F)cc3)ccc2O[C@H]1CN(C)Cc1ccc(C(=O)Nc2ccccc2N)cc1,-1.0
C[C@@H]1CN([C@@H](C)CO)C(=O)CCCn2cc(nn2)CO[C@H]1CN(C)S(=O)(=O)c1ccc(Oc2ccccc2)nc1,-0.5
COc1ccc(NC(=O)N(C)C[C@H]2Oc3ccc(NS(=O)(=O)c4ccccc4)cc3CC(=O)N([C@H](C)CO)C[C@H]2C)cc1,0.7
C[C@@H]1CN([C@H](C)CO)C(=O)Cc2cc(NC(=O)Cn3cnnn3)ccc2O[C@@H]1CN(C)S(=O)(=O)c1cn(C)cn1,1.6
C[C@H]1CN([C@@H](C)CO)C(=O)c2cc(NC(=O)Nc3ccc4c(c3)OCO4)ccc2O[C@H]1CN(C)C,-0.5
Cc1noc(C)c1NC(=O)N(C)C[C@@H]1Oc2c(cccc2N(C)C)C(=O)N([C@@H](C)CO)C[C@@H]1C,0.1
O=C(CCCCCCC(=O)N/N=C\c1ccc(O)c2ccccc12)NO,-0.2
CC(C)NC(=O)N(C)C[C@H]1Oc2c(NS(=O)(=O)c3cccs3)cccc2C(=O)N([C@@H](C)CO)C[C@H]1C,0.7
Cc1ccc(S(=O)(=O)N(C)C[C@H]2OCCCC[C@@H](C)Oc3ccc(NS(=O)(=O)c4ccccc4)cc3C(=O)N([C@H](C)CO)C[C@@H]2C)cc1,-0.1
# Continued.
SMILES,A1 apoptosis 2
COc1ccc(NC(=O)Nc2cccc3c2O[C@@H](CN(C)S(C)(=O)=O)[C@@H](C)CN([C@H](C)CO)C3=O)cc1,-0.9
C[C@@H]1CN([C@@H](C)CO)C(=O)c2cc(NC(=O)Nc3ccc4c(c3)OCO4)ccc2O[C@H]1CN(C)Cc1ccc(C(=O)Nc2ccccc2N)cc1,0.1
COc1ccc(CN(C)C[C@@H]2Oc3c(NC(=O)c4ccc(-c5nccs5)cc4)cccc3C(=O)N([C@H](C)CO)C[C@H]2C)cc1,-0.6
C[C@@H]1CN([C@H](C)CO)C(=O)Cc2cc(NC(=O)Nc3cccc4ccccc34)ccc2O[C@H]1CN(C)S(=O)(=O)c1ccc(F)cc1,2.0
C[C@H](CO)N1C[C@H](C)[C@@H](CN(C)Cc2ccncc2)OCc2cn(nn2)CCCC1=O,0.8
Cc1ccc(S(=O)(=O)N(C)C[C@H]2Oc3c(NC(=O)NC(C)C)cccc3C(=O)N([C@H](C)CO)C[C@H]2C)cc1,-1.4
C[C@H](CO)N1C[C@H](C)[C@H](CN(C)S(=O)(=O)c2ccccc2)Oc2ccc(NS(=O)(=O)c3ccc(F)cc3)cc2CC1=O,0.4
Cc1noc(C)c1NC(=O)Nc1ccc2c(c1)C(=O)N([C@@H](C)CO)C[C@@H](C)[C@@H](CN(C)C(=O)NC(C)C)O2,0.5
C[C@@H]1CN([C@H](C)CO)C(=O)c2cccc(NC(=O)CCCCCC(=O)Nc3ccccc3N)c2O[C@@H]1CN(C)CC1CC1,0.0
C=CCC/C=N/NC(=O)CCCCCC(=O)O,-0.5
CNC[C@H]1Oc2c(NC(=O)NC3CCCCC3)cccc2C(=O)N([C@@H](C)CO)C[C@H]1C,0.5
Cc1ccc(S(=O)(=O)N(C)C[C@@H]2Oc3c(NC(=O)Nc4ccc(C(F)(F)F)cc4)cccc3C(=O)N([C@H](C)CO)C[C@@H]2C)cc1,-1.0
C[C@H](CO)N1C[C@H](C)[C@H](CN(C)C(=O)Nc2ccccc2)OCCCC[C@H](C)Oc2ccc(NC(=O)Nc3ccc(F)cc3)cc2C1=O,0.4
C[C@H](CO)N1C[C@H](C)[C@@H](CN(C)Cc2ccc(-c3ccccc3)cc2)Oc2ccc(NS(=O)(=O)c3ccccc3)cc2C1=O,-0.4
C[C@H](CO)N1C[C@H](C)[C@H](CN(C)Cc2ccc3c(c2)OCO3)Oc2c(NS(=O)(=O)c3cn(C)cn3)cccc2C1=O,0.5
CCO[C@H]1OC(C(=O)NCc2ccccc2)=C[C@@H](C2CCCCC2)[C@@H]1CCCO,0.1
C[C@@H]1CN([C@@H](C)CO)C(=O)Cc2cc(NC(=O)Nc3ccccc3)ccc2O[C@@H]1CN(C)C(=O)NC1CCCCC1,0.3
Cc1noc(C)c1NC(=O)Nc1ccc2c(c1)C(=O)N([C@@H](C)CO)C[C@H](C)[C@H](CN(C)C(=O)NC(C)C)OCCCC[C@H](C)O2,-0.5
C[C@@H]1CN([C@@H](C)CO)C(=O)c2cccc(NC(=O)c3ccncc3)c2O[C@@H]1CN(C)C(=O)Nc1ccc2c(c1)OCO2,-0.1
C[C@@H]1CN([C@H](C)CO)C(=O)c2cc(NS(C)(=O)=O)ccc2O[C@@H](C)CCCCO[C@@H]1CN(C)S(=O)(=O)c1cccs1,0.9
Cc1ccc(S(=O)(=O)N(C)C[C@H]2Oc3c(NC(=O)NC(C)C)cccc3C(=O)N([C@@H](C)CO)C[C@H]2C)cc1,-0.4
C[C@@H]1CN([C@@H](C)CO)C(=O)c2cc(NC(=O)c3ccncc3)ccc2O[C@H]1CN(C)Cc1ccc(Cl)c(Cl)c1,-0.7
C[C@@H]1CN([C@@H](C)CO)C(=O)Cc2cc(NC(=O)Nc3ccc(F)cc3)ccc2O[C@@H]1CN(C)S(=O)(=O)c1cccs1,-0.8
C[C@@H]1CN([C@H](C)CO)C(=O)CCCn2nncc2CO[C@H]1CN(C)S(=O)(=O)c1ccc(Oc2ccccc2)nc1,-1.3
COc1ccc(NC(=O)Nc2ccc3c(c2)C(=O)N([C@@H](C)CO)C[C@@H](C)[C@H](CN(C)Cc2ccc(C(=O)O)cc2)OCCCC[C@@H](C)O3)cc1,0.6
# (list continues)
SMILES,A1 apoptosis 2
Cc1cc(C(=O)Nc2cccc3c2O[C@H](CN(C)S(=O)(=O)c2cccs2)[C@@H](C)CN([C@@H](C)CO)C3=O)n(C)n1,-0.3
C[C@H](CO)N1C[C@H](C)[C@H](CN(C)CC2CCCCC2)Oc2ccc(NC(=O)Cn3cnnn3)cc2C1=O,-0.9
C[C@@H]1CCCCO[C@@H](CN(C)C)[C@@H](C)CN([C@H](C)CO)C(=O)c2cc(NC(=O)C3CCCCC3)ccc2O1,2.0
C[C@H](CO)N1C[C@H](C)[C@@H](CN(C)C(=O)CCC(F)(F)F)OCCCC[C@H](C)Oc2ccc(NS(=O)(=O)c3ccc(F)cc3)cc2C1=O,-0.6
C[C@H](CO)N1C[C@H](C)[C@H](CN(C)S(=O)(=O)c2ccc(C#N)cc2)Oc2ncc(-c3cccc(C(F)(F)F)c3)cc2C1=O,0.3
CCO[C@@H]1OC(C(=O)NC2CC2)=C[C@H](c2ccc(C(F)(F)F)cc2)[C@H]1CCCO,1.0
COc1ccc(NC(=O)Nc2ccc3c(c2)C(=O)N([C@H](C)CO)C[C@@H](C)[C@H](CN(C)C(=O)Nc2c(C)noc2C)O3)cc1,-0.3
C[C@@H]1CN([C@@H](C)CO)C(=O)c2cc(NC(=O)NC3CCCCC3)ccc2O[C@@H](C)CCCCO[C@H]1CN(C)S(=O)(=O)c1ccc(F)cc1,-0.4
CO[C@H]1O[C@H](CO)[C@@H](OC(=O)Nc2ccccc2)[C@H](OC(=O)Nc2ccccc2)[C@@H]1OC(=O)Nc1ccccc1,0.4
C[C@H]1CN([C@@H](C)CO)C(=O)c2cccc(NC(=O)Nc3ccc(C(F)(F)F)cc3)c2O[C@H]1CN(C)S(=O)(=O)c1ccc(Cl)cc1,-0.2
C[C@@H]1CN([C@@H](C)CO)C(=O)c2cc(NC(=O)Cc3cn(C)c4ccccc34)ccc2O[C@H]1CN(C)Cc1ccc2c(c1)OCO2,1.0
C[C@@H]1CN([C@@H](C)CO)C(=O)c2cc(NC(=O)c3ccncc3)ccc2O[C@@H](C)CCCCO[C@@H]1CN(C)C(=O)Nc1ccccc1,-0.3
Cc1ccc(S(=O)(=O)N(C)C[C@@H]2Oc3ccc(NC(=O)NC(C)C)cc3C(=O)N([C@H](C)CO)C[C@@H]2C)cc1,-1.8
CN(C)C(=O)[C@@]1(Cc2ccccc2CN=[N+]=[N-])N=C(c2ccc(OCCCO)cc2)O[C@H]1c1ccccc1,1.9
COc1ccc(CN(C)C[C@@H]2Oc3ccc(NC(=O)C4CCCCC4)cc3C(=O)N([C@H](C)CO)C[C@@H]2C)cc1,-0.8
Cc1ccc(S(=O)(=O)N(C)C[C@H]2OCCCC[C@H](C)Oc3ccc(NC(=O)Nc4ccc5c(c4)OCO5)cc3C(=O)N([C@H](C)CO)C[C@H]2C)cc1,1.0
C[C@@H]1CCCCO[C@H](CN(C)C(=O)Nc2ccc(C(F)(F)F)cc2)[C@H](C)CN([C@H](C)CO)C(=O)c2cc(NC(=O)Nc3ccc(F)cc3)ccc2O1,1.0
Cc1noc(C)c1NC(=O)N(C)C[C@@H]1Oc2ccc(NC(=O)C3CCCCC3)cc2CC(=O)N([C@@H](C)CO)C[C@H]1C,0.5
Cc1noc(C)c1NC(=O)Nc1ccc2c(c1)C(=O)N([C@@H](C)CO)C[C@@H](C)[C@H](CN(C)Cc1ccc(C(F)(F)F)cc1)O2,-0.3
C[C@H](CO)N1C[C@H](C)[C@H](CN(C)Cc2ccc(C(F)(F)F)cc2)Oc2ccc(NC(=O)C3CC3)cc2C1=O,-0.6
Cc1noc(C)c1NC(=O)Nc1cccc2c1O[C@@H](CN(C)Cc1ccncc1)[C@H](C)CN([C@H](C)CO)C2=O,-1.0
C[C@H](CO)N1C[C@H](C)[C@H](CN(C)C(=O)Nc2ccc(C(F)(F)F)cc2)Oc2ccc(NS(=O)(=O)c3ccc(F)cc3)cc2C1=O,0.0

# Ten entries from above, bar-delimited.
canonical_smiles | A1 apoptosis 2
Cc1cc(C(=O)Nc2cccc3c2O[C@H](CN(C)S(=O)(=O)c2cccs2)[C@@H](C)CN([C@@H](C)CO)C3=O)n(C)n1 | -0.3
C[C@H](CO)N1C[C@H](C)[C@H](CN(C)CC2CCCCC2)Oc2ccc(NC(=O)Cn3cnnn3)cc2C1=O | -0.9
C[C@@H]1CCCCO[C@@H](CN(C)C)[C@@H](C)CN([C@H](C)CO)C(=O)c2cc(NC(=O)C3CCCCC3)ccc2O1 | 2.0
C[C@H](CO)N1C[C@H](C)[C@@H](CN(C)C(=O)CCC(F)(F)F)OCCCC[C@H](C)Oc2ccc(NS(=O)(=O)c3ccc(F)cc3)cc2C1=O | -0.6
C[C@H](CO)N1C[C@H](C)[C@H](CN(C)S(=O)(=O)c2ccc(C#N)cc2)Oc2ncc(-c3cccc(C(F)(F)F)c3)cc2C1=O | 0.3
CCO[C@@H]1OC(C(=O)NC2CC2)=C[C@H](c2ccc(C(F)(F)F)cc2)[C@H]1CCCO | 1.0
COc1ccc(NC(=O)Nc2ccc3c(c2)C(=O)N([C@H](C)CO)C[C@@H](C)[C@H](CN(C)C(=O)Nc2c(C)noc2C)O3)cc1 | -0.3
C[C@@H]1CN([C@@H](C)CO)C(=O)c2cc(NC(=O)NC3CCCCC3)ccc2O[C@@H](C)CCCCO[C@H]1CN(C)S(=O)(=O)c1ccc(F)cc1 | -0.4
CO[C@H]1O[C@H](CO)[C@@H](OC(=O)Nc2ccccc2)[C@H](OC(=O)Nc2ccccc2)[C@@H]1OC(=O)Nc1ccccc1 | 0.4
C[C@H]1CN([C@@H](C)CO)C(=O)c2cccc(NC(=O)Nc3ccc(C(F)(F)F)cc3)c2O[C@H]1CN(C)S(=O)(=O)c1ccc(Cl)cc1 | -0.2

# Only part of the results is shown; count on the stated rates, not on these rows.
